VACV mCherry inh: inhibitors of vaccinia virus infection (mCherry reporter signal); Potency, µM (highest dose often 36.5 µM), for inactives: at the highest dose activity change, negative = inhibition, hits mostly inhibitors; Vaccinia virus mCherry reporter infection, fluorescence; about a quarter of the inactives have no number; actives 0.63% (n = 310,000); active = well fitted inhibition curve with a large enough effect; inconclusive = small, poorly fitted or top-dose-only effect; inactive = no such curve, though single readings can be large or run the other way; tested in A549 cells; further: nearly all actives have a fitted effect of over 35% in size; inactives centre near -10
VACV Venus inh: vaccinia inhibition (Venus reporter) | Vaccinia virus Venus reporter expression, fluorescence | Potency, µM (top dose mostly 36.5 µM), for inactives: at the highest dose activity change, negative = inhibition, hits mostly inhibitors | actives 0.46% (n = 330,000) | AID 720580; active means well fitted inhibition curve with a large enough effect; inconclusive means small, poorly fitted or top-dose-only effect; inactive means no such curve, though single readings can be large or run the other way; tested in A549 cells; further: nearly all actives have a fitted effect of over 30% in size; inactives centre near -10
* hit, by the source's call; i = inactive; ? = inconclusive; nt = not tested or not shown; [ ] = remark or other dose. On the % scale 0 is the no-effect control and ±100 the full control effect; potency means the concentration at half of the fitted maximal effect.

SMILES	VACV mCherry inh	VACV Venus inh
CCOc1ccc(-c2cc(-c3nc(-c4ccc(OC)c(OC)c4)no3)[nH]n2)cc1	-15.0%	-15.7%
O=C(c1cc2nc(-c3ccccc3)cc(C(F)(F)F)n2n1)N1CCN2CCCC2C1 (stereo not drawn)	-14.1%	-20.7%
Cc1c(C(=O)NCc2cccnc2)sc2nc(-c3ccc(F)cc3)cn12	?	?
NC(=O)c1ccc(NC(=O)c2cccc3c2OCCCO3)cc1	-10.1%[7.34 µM]	-0.6%[7.34 µM]
O=C(C1CCN(S(=O)(=O)c2cc(Cl)ccc2Cl)CC1)N1CCCC1	-9.8%	-12.5%
COc1ccc(C2C3=C(CCCC3=O)Nc3ccc4ncccc4c32)cc1OC (stereo not drawn)	-2.7%	3.7%
CCOC(=O)c1c(NC(=O)COC(=O)c2nc(Cl)ccc2Cl)sc(C(=O)N(C)C)c1C	-13.2%	-17.3%
O=C(C[C@H]1C[C@@H]2c3cc(NC(=O)c4cccnc4)ccc3O[C@@H]2[C@H](CO)O1)NCc1ccncc1	i	-8.5%
CCc1nc(N=Nc2c(O)[nH]c3ccccc23)c2c3c(sc2n1)CCC3	15.8µM*	10µM*
O=C(CCC(=O)N1CCN(c2ccc(F)cc2)CC1)c1ccc(F)cc1	-4.2%	-6.7%
Cc1cccc(-n2ncc(C(=O)NCc3ccc4c(c3)OCO4)c2C2CCN(C(=O)OC(C)(C)C)CC2)c1	-19.9%	-17.8%
COc1ccc(CN2CCCC(C(=O)c3ccc(Cl)cc3)C2)cc1Cn1cncn1 (stereo not drawn)	-23.5%	?
CCOC(=O)C1=C(C)NC(=S)N(C(C)=O)C1c1ccc(Cl)cc1 (stereo not drawn)	-15.2%	-25.6%
Cc1cc(C)c(OCC(=O)OCC(=O)N2CCc3ccccc3C2)c(C)c1	-23.8%	-8.4%
O=Cc1cn(-c2ccccc2)nc1-c1cccnc1	-18.8%	-11.6%
O=c1cc(O)c2sc(Nc3ccc(F)c(Cl)c3)nc2[nH]1	3.8%	13.0%
Cc1ccc2nc(SC(C(=O)Nc3ccc(F)cc3)c3ccccc3)[nH]c2c1 (stereo not drawn)	?	?
CC(C)c1ccc(N(CC(=O)NCC2CCCO2)C(=O)CCC(=O)Nc2nccs2)cc1 (stereo not drawn)	-6.4%	-2.5%
CN1c2ccccc2C(C)(C)C12C=Nc1c(cc(N3CCOCC3)c3ccccc13)O2 (stereo not drawn)	-14.9%	-18.2%
Cc1ccc(CNC(=O)CN(C2CCCCC2)S(C)(=O)=O)cc1	i	-10.3%
CCOC(=O)C1CCN(C(=O)c2ccccc2)C(CC)C1=O (stereo not drawn)	-8.1%	-15.1%
C[C@H](CCC(=O)NCC(=O)O)C1CC[C@H]2[C@H]3C(C[C@H](O)[C@]12C)[C@@]1(C)CC[C@@H](O)C[C@H]1C[C@H]3O (stereo partly drawn)	-1.1%	-18.3%
CCN(CC(=O)Nc1cc(Cl)ccc1C)C(=O)CSCc1ccc(C)cc1	?	?
CCOC(=O)N1CCN(C(=O)C[C@@H]2C[C@@]3(C(=O)OCC)CCC=C3N(Cc3ccccc3)C2=O)CC1	-2.7%	-3.1%
CCC1=C(OC(=O)N(CC)CC)N2C(=O)OC(=NCC3CC3)[C@]2(Cc2ccccc2)[C@H]2C1=CC[C@H]1C(=O)N(CC(=O)OC)C(=O)[C@H]12	-1.4%	-18.8%
CC(OC(=O)C1CC1)C(=O)Nc1cc(C(F)(F)F)ccc1Cl (stereo not drawn)	-15.0%	-8.2%
CC(C)(C)C1CCc2oc3ccc(NS(=O)(=O)c4ccc(C(=O)O)cc4)cc3c2C1 (stereo not drawn)	-10.4%[7.34 µM]	-9.0%[7.34 µM]
CCOc1ccc(N2C(=O)CC(NCc3ccc(F)cc3)C2=O)cc1 (stereo not drawn)	-7.3%	-3.8%
CCNc1nc(C)nc2c1cnn2C	-11.7%	0.7%
O=C(NNC(=S)NC1CCCCC1)c1cccs1	-6.5%	-15.8%
COCCN(C(=S)Nc1ccc(OC)c(Cl)c1)C1CCN(C(C)C)CC1	-7.6%	-13.8%
COc1ccc2nc(Nc3nc(-c4cc5ccccc5oc4=O)cs3)sc2c1	i	-6.7%
Cc1ccc(S(=O)(=O)/N=C2\C=C(NS(=O)(=O)c3ccc(C)cc3)C(=O)c3ccccc32)cc1	-3.1%	25.1%
Cc1cccc(-n2nnnc2S(C)(=O)=O)c1	-23.9%	-29.2%
O=C(Nc1nc2n(n1)C(c1ccc(Cl)cc1)C=C(c1ccccc1)N2)c1ccco1 (stereo not drawn)	-9.7%	-12.5%
COc1cccc(CNc2nc3cc(-c4ccc(C(=O)N5CCN(C)CC5)cc4)sc3c(=O)n2C)c1	-11.3%	-12.4%

Look-ups from the entries so far.
VACV mCherry inh with `O=C(NNC(=S)NC1CCCCC1)c1cccs1` → -6.5%
VACV mCherry inh with `CCOc1ccc(N2C(=O)CC(NCc3ccc(F)cc3)C2=O)cc1` (stereo not drawn) → -7.3%
VACV Venus inh with `COc1ccc2nc(Nc3nc(-c4cc5ccccc5oc4=O)cs3)sc2c1` → -6.7%

Next compounds follow:
SMILES	VACV mCherry inh	VACV Venus inh
CN(C(=O)c1ccc(NC(=O)Cc2ccc(NC(=O)C3CCN(C(=O)C4CCC4)CC3)cc2)cc1)C1CCCC1	i	-13.1%
COc1ccc(/C=C2\CCc3ccccc3C2=O)cc1Cn1nc(C)cc1C	i	-25.0%
Cc1ccc(C)c(N2CCN(S(=O)(=O)c3c(C)noc3/C=C/N(C)C)CC2)c1	nt	-14.4%
O=C(CN1C(=O)c2cccc3cccc1c23)NC1CCCC1	-8.7%	-8.0%
CC(/C=N/n1c(-c2n[nH]c3c2CCC3)n[nH]c1=S)=C\c1ccco1	i[7.34 µM]	1.1%[7.34 µM]
COc1ccccc1-n1cnnc1SC(C)C(=O)Nc1ccc(NC(C)=O)cc1 (stereo not drawn)	-10.8%	7.2%
O=C(COC(=O)C1CC2CCCC(C1)C2=O)NNC(=O)c1ccc([N+](=O)[O-])cc1 (stereo not drawn)	-13.7%	-5.3%
CN1CCN(c2ccc(C(N)=O)cc2N)CC1	i	-14.1%
N#CCCN1CCCc2cc(N=Nc3ccc(C(F)(F)F)cc3)ccc21	?	-16.4%
COCC(=O)n1cc(C(=O)OC)c2ccccc21	-6.2%	-10.7%
COC(=O)c1ccc(Cl)cc1NC(=O)Nc1nnc(N(C)Cc2ccccc2)s1	-7.8%	2.0%
O=S(=O)(c1ccc(NC(=S)NCc2ccncc2)cc1)N1CCCCC1	-11.0%	-23.5%
CCCn1c(SCC(=O)N2CCc3ccccc32)n[nH]c1=O	i	-6.7%
Cc1nn2c(C)c(C(=O)NC(C)(C)C)cnc2c1-c1ccc(F)cc1	-19.5%	-10.9%
O=C(CSc1nc(=O)n(Cc2ccco2)c2c1CCC2)NCc1ccccc1	-8.6%	-4.7%
C=CCN(C(=O)CCS(=O)(=O)c1cccc2nsnc12)c1ccccc1	-2.7%	-15.4%
Cc1ccccc1S(=O)(=O)N1[C@@H](c2ccc(F)cc2)C(C(=O)O)=CC[C@H]1c1ccc(Cl)cc1	i	-17.3%
COc1cc2nc(NCCc3cccc(C)c3)n3nc(-c4ccccc4)nc3c2cc1OC	i	-3.8%
Cc1ccc(SCC(=O)NN=C2CCN(C)CC2)cc1	-9.2%	-12.1%
CCCC(=O)NCn1nnc(-c2ccc(Cl)cc2)n1	-1.6%	-6.2%
NC(=O)C1CCCN(C(=O)CCCNC(=O)c2ccc(Cl)cc2)C1 (stereo not drawn)	-9.9%	10.9%
COc1ccc(CCN(C)S(=O)(=O)c2ccc(Cl)nc2)cc1OC	?	?
CC[C@@]1(C(=O)OC)N[C@H](CN(C)S(=O)(=O)c2ccccc2)[C@@H]2C(=O)N(Cc3ccccc3)C(=O)[C@@H]21	-14.2%	-14.6%
CC1(C(=O)NS(=O)(=O)C2CC2)CCN(C(=O)c2cc(F)cc(F)c2)C1 (stereo not drawn)	1.3%	1.1%
Cc1cc(OCC(=O)N2CCC(C(=O)O)CC2)c2c(C)cc(=O)oc2c1	0.6%	-7.9%
COc1ccc(-c2ncccc2O)cc1	nt	-3.3%
Cc1cc(C(=O)CSc2n[nH]c(N)n2)c(C)n1-c1cccc(F)c1	i	-19.0%
Cc1cc(C)nc(/N=C2\NC(=O)CC(C(=O)O)N2c2ccc(Cl)cc2)n1 (stereo not drawn)	i	2.4%
Cc1cccc(CS(=O)(=O)Cc2ccc(C(=O)NCc3ccc(Cl)cc3)o2)c1	-11.6%	-10.8%
Cc1ccc(S(=O)(=O)N(C)C)cc1NC(=O)C(C)OC(=O)c1cc[n+]([O-])cc1 (stereo not drawn)	-11.6%	-3.4%
Fc1ccc(-c2cnc[nH]2)cc1	i	-18.1%
COc1ccc(CC(=O)N2CCC(C)(C(=O)NS(=O)(=O)C3CC3)C2)cc1OC (stereo not drawn)	4.9%	-3.2%
O=C(NCc1ccncc1)C(=O)NCc1ccncc1	-13.6%	-6.7%
Oc1c(C(c2ccccc2Cl)N2CCOCC2)sc2nc(-c3ccco3)nn12 (stereo not drawn)	-14.4%	-8.3%
COc1ccc(CNS(=O)(=O)NCc2ccc(C)cc2)cc1OC	?	-15.7%
Cc1ccccc1NC(=O)c1ccc(CN2CCc3ccccc3C2)cc1	nt	?
Cc1cc(OCCCCNC(C)C)cc(C(C)C)c1	?	-18.1%
CC(=O)NC(c1ccc2ccccc2c1)c1ccc2cccnc2c1O (stereo not drawn)	?	?
COc1ccc(C2Nc3ccccc3C(=O)N2c2ccc(C)cc2)cc1COc1ccccn1 (stereo not drawn)	i	-12.9%
O=C(CN1C(=O)NC2(CCCC2)C1=O)OCCOc1cccc(Cl)c1	-18.8%	-8.2%
O=C(Cn1c(NCCO)nc2ccccc21)NCC(F)(F)F	i[7.34 µM]	-4.8%[7.34 µM]
O=C(Cc1cnn(-c2ccccc2)c1)c1ccc(O)c(O)c1O	-15.0%	3.0%
CC(NO)/C(=N\O)c1cccs1 (stereo not drawn)	i	-9.5%
COC(=O)/C=c1/sc2n(c1=O)CCN=2	3.0%	3.9%
C[C@H](CO)N1C[C@H](C)[C@H](CN(C)C(=O)Nc2ccc(-c3cccs3)cc2)OCc2cnnn2CCCC1=O	-10.4%	-16.8%
COC(=O)c1ccc(NC(=O)CC2C(=O)N(c3cccc(OC)c3)C(=O)N2Cc2cccc(OC)c2)cc1 (stereo not drawn)	5.6%	-5.1%
CC(C)[C@H]1C(=O)Nc2ccccc2N1C(=O)N[C@@H](Cc1ccccc1)C(=O)N[C@@H](C(=O)O)c1ccccc1	6.1%	5.5%
O=C(c1cccc(-n2cccc2)c1)N1CCN(S(=O)(=O)c2ccccc2)CC1	-21.0%	-8.6%

Complete entries as entered above. Order of screens: VACV mCherry inh | VACV Venus inh
O=C(c1cccc(-n2cccc2)c1)N1CCN(S(=O)(=O)c2ccccc2)CC1 is listed with -21.0% | -8.6%
COc1ccc(C2Nc3ccccc3C(=O)N2c2ccc(C)cc2)cc1COc1ccccn1 (stereo not drawn) is listed with i | -12.9%
CC(=O)NC(c1ccc2ccccc2c1)c1ccc2cccnc2c1O (stereo not drawn) is listed with ? | ?
C[C@H](CO)N1C[C@H](C)[C@H](CN(C)C(=O)Nc2ccc(-c3cccs3)cc2)OCc2cnnn2CCCC1=O is listed with -10.4% | -16.8%
O=C(Cc1cnn(-c2ccccc2)c1)c1ccc(O)c(O)c1O is listed with -15.0% | 3.0%

The list goes on.
SMILES	VACV mCherry inh	VACV Venus inh
NC(=O)C[C@H](NC(=O)Cc1ccc(O)cc1O)C(=O)O	-6.1%	-4.5%
O=c1cc(O)nc(SCc2ccccc2)n1-c1ccc(Cl)cc1	i	-5.5%
CC(C)c1cccc(-c2csc(C(O)c3ccccc3)n2)c1 (stereo not drawn)	i	-5.4%
O=C(Nc1ccc(Cl)c(S(=O)(=O)N2CCOCC2)c1)c1cccs1	-5.8%	-15.3%
O=C1COC(c2ccccc2)C2CCCCN12 (stereo not drawn)	-4.7%	-6.1%
CC(=O)c1c(C)nn(C(=O)N2CCOCC2)c1C	nt	-9.3%
Cc1ccc(C)c(Cn2nnc3c(=O)[nH]c(C4CCCN(S(=O)(=O)Cc5ccccc5)C4)nc32)c1 (stereo not drawn)	-19.3%	-2.9%
CN(CC(=O)NCC1COc2ccccc2O1)S(=O)(=O)c1ccc(Cl)cc1 (stereo not drawn)	-4.5%	-15.9%
O=c1/c(=C/c2ccccn2)sc2n1CN(c1ccccc1)CN=2	i	-6.5%
Cc1ccc(C(=O)OCC(=O)Nc2ccc(C)c(S(=O)(=O)N3CCCCC3)c2)o1	i	-12.9%
CCN(C(=O)CSc1nc(-c2cccs2)nc2ccccc12)C1CCS(=O)(=O)C1 (stereo not drawn)	-17.1%	-24.9%
Cc1cccc(C)c1-n1nnnc1C1(C)CCC(=O)N1Cc1cccs1 (stereo not drawn)	-3.5%	-4.5%
C[C@H]1[C@H](C)CC[C@]2(C)CC[C@]3(C)C(=CC(=O)C4[C@@]5(C)CC[C@H](O)C(C)(C)C5CC[C@]43C)[C@H]12 (stereo partly drawn)	i	5.9%
CC(C)NC(=O)COC(=O)c1ccc(S(=O)(=O)N2CCCC2)cc1	-16.6%	0.3%
COc1ccc(OC)c(NC(=O)COC(=O)/C=C/c2c(C)nn(C3CCS(=O)(=O)C3)c2Cl)c1 (stereo not drawn)	nt	-25.3%
COc1ccc(/C=C/C(=O)c2cc3c(cc2N)OCO3)cc1	-3.7%	-13.0%
O=C(Nc1cccc2c1CCCC2)c1cc(C2CCCCN2S(=O)(=O)c2cccs2)on1 (stereo not drawn)	11.5%	-12.7%
O=C(c1cccc([N+](=O)[O-])c1)N1CC2C3C=CC(C3)C2C1 (stereo not drawn)	i	-6.0%
FC(F)Oc1ccc(/C=N/c2c(-c3ccc(OC(F)F)cc3)nc3n2CCS3)cc1	-17.4%	-8.7%
